Assay outcomes from PubChem BioAssay.
Vaccinia mCherry: inhibitors of vaccinia virus infection (mCherry reporter signal) | Vaccinia virus mCherry reporter infection, fluorescence; about a quarter of the inactives have no number | Potency, µM (doses to about 36.5 µM), for inactives: at the top dose activity change, negative = inhibition, usual class: inhibitors | hit rate 0.63% among 310,000 | AID 720579; active = well fitted inhibition curve with a large enough effect; inconclusive = small, poorly fitted or top-dose-only effect; inactive = no such curve, though single readings can be large or run the other way; tested in A549 cells; further: nearly all actives have a fitted effect of over 35% in size; inactives centre near -10
Vaccinia Venus: inhibitors of vaccinia virus (Venus reporter) | hit rate 0.46% among 330,000 | Potency, µM (highest dose often 36.5 µM), without a hit: at the top dose activity change, negative = inhibition, actives largely listed as inhibitors | Vaccinia virus Venus reporter expression, fluorescence | AID 720580; active means well fitted inhibition curve with a large enough effect; inconclusive means small, poorly fitted or top-dose-only effect; inactive means no such curve, though single readings can be large or run the other way; tested in A549 cells; further: nearly all actives have a fitted effect of over 30% in size; inactives centre near -10
Starred values were filed as active, the others as inactive; i = inactive; ? = inconclusive; nt = no result given; [ ] = another dose, or the depositor's remark. On the % scale 0 is the no-effect control and ±100 the full control effect; potency means the concentration at half of the fitted maximal effect. This is a random part of the collection; any-hit rate near 0.82%.

SMILES	Vaccinia mCherry	Vaccinia Venus
O=C(OCc1cc([N+](=O)[O-])cc2c1OCOC2)c1ccc2ccccc2n1	i	4%
CN(CCc1ccccn1)C(=O)Nc1ccc(F)cc1	nt	3%
COc1ccc(C(O)c2ncc(-c3ccccc3OC)[nH]2)cc1F (centres undefined)	15%	-8%
Cc1ccc(Nc2sc(C(=O)c3ccccc3)c(N)c2C(N)=O)cc1	-17%	-12%
COc1ccc(N(C(=O)CS(=O)CC(=O)Nc2ccc(F)cc2)C(C(=O)NC2CCCCC2)c2cccs2)cc1 (centres undefined)	-1%	-12%
COC(=O)c1ccc(CSc2ncnc3c2nnn3-c2ccc(OC)cc2)o1	-16%	-13%
CCOC(=O)C1=C(NC(=S)NC(=O)c2ccccc2)c2ccccc2CC1(C)C	nt	0%
NCCC(O)C(=O)NC1C[C@@H](N)[C@H](O[C@@H]2OC(CN)C(O)C(O)C2O)C(O)[C@H]1O[C@H]1OC(CO)C(O)C(N)C1O (some centres undefined)	-7%	-11%
CC12CCC(C(=O)N(CCC#N)CCC#N)(CC1=O)C2(C)C (centres undefined)	i	-4%
CCCCN(C(=O)c1ccc(-c2ccc([N+](=O)[O-])cc2)o1)c1c(N)n(CCCC)c(=O)[nH]c1=O	-14%	-3%
Cc1cccc(N(CC(=O)NC2CCCCC2)C(=O)CCCC(=O)Nc2ccccn2)c1	-10%	-8%
Cc1ccc(N2CCN(C(=O)CCc3c(C)nc4ncnn4c3C)CC2)c(C)c1	-14%	-17%
CCc1ccc(CCC(=O)Nc2ccc(OC)cc2)o1	i	-12%
Cn1c(Cc2ccccc2)nnc1SCC(=O)c1cccs1	-9%	-8%
c1ccc(CCNCCCOc2cccc3ccccc23)cc1	-19%	?
O=C(O)/C=C/c1ccc2c(c1)S(=O)(=O)N(C1CCCC1)[C@H]2CC(=O)O	-12%	-8%
CCOC(=O)c1cnc(SC)nc1NCCOC	-11%	-2%
C=C(C)C1Cc2c(ccc3c(=O)c4c(oc23)COc2cc(OC)c(OC)cc2-4)O1 (centres undefined)	-8%	-8%
CCCn1cc(S(=O)(=O)CC(=O)NC2CCCCC2)c2ccccc21	-2%	-15%
Cc1cc(C)n2nc(C(=O)OCCOc3ccc(F)cc3)nc2n1	-13%	-3%
COc1ccc(CC(=O)OCC(=O)N2CCCc3ccccc32)cc1OC	i	-2%
COc1ccc(C2=CSC3=NCCN23)cc1Br	?	-16%
CCCNC(=O)CSc1c(CCC)cnc2c1c(=O)n(C)c(=O)n2C	i	-1%
C=CCn1c(O)c(C(C)=Nc2cc(OC)ccc2OC)c(=O)[nH]c1=O	nt	-9%
NC(=O)c1ccc(OCC2CCCO2)cc1 (centres undefined)	i	-9%
COc1ccc(Nc2nc(N)c([N+](=O)[O-])c(NC3CCCCC3)n2)cc1	?	?
Cc1n[nH]c2ccc([N+](=O)[O-])cc2c1=O	-9%	-8%
CCCC(C)C1c2c(c(C)c(C)oc2=O)Oc2c(C)c(C)oc(=O)c21 (centres undefined)	-16%	-14%
COc1ccc(S(=O)(=O)N2CCOC23CCN(S(=O)(=O)c2ccc(Cl)cc2)CC3)cc1	i	-13%
CCOC(=O)C1=C(CN(CC)Cc2ccccc2)NC(=O)NC1c1ccc(OC(C)C)cc1 (centres undefined)	-8%	-3%

Next part (four carried over from the part before).
SMILES	Vaccinia mCherry	Vaccinia Venus
Cc1n[nH]c2ccc([N+](=O)[O-])cc2c1=O	-9%	-8%
CCCC(C)C1c2c(c(C)c(C)oc2=O)Oc2c(C)c(C)oc(=O)c21 (centres undefined)	-16%	-14%
COc1ccc(S(=O)(=O)N2CCOC23CCN(S(=O)(=O)c2ccc(Cl)cc2)CC3)cc1	i	-13%
CCOC(=O)C1=C(CN(CC)Cc2ccccc2)NC(=O)NC1c1ccc(OC(C)C)cc1 (centres undefined)	-8%	-3%
COC(=O)c1ccc(NC(=O)CSc2nnc(COc3ccc4c(c3)CCCC4)o2)cc1	-19%	-15%
O=C(CSc1nnc(-c2ccc(OC(F)F)cc2)o1)NCc1cccs1	nt	-9%
CCOc1cc(OCC)nc(S(C)(=O)=O)n1	-10%	-1%
CCOc1cc(C(=O)Nc2ncccn2)cc(OCC)c1OCC	i	-20%
CC1CN(Cc2nc3c(c(=O)n(C)c(=O)n3C)n2Cc2cccc(Cl)c2)CC(C)O1 (centres undefined)	-8%	-13%
Cc1ccc(-c2nnn3c2nc(Cl)c2ccccc23)cc1	-13%	9%
Cc1ccc(NC2SC(=O)N(Cc3cccc(C(=O)O)c3)C2=O)cc1 (centres undefined)	-19%	-23%
CN(CC(=O)NNC(=O)CNC(=O)c1ccccc1Cl)S(=O)(=O)c1ccc(Cl)cc1	-18%	-10%
Cc1ccc(S(=O)(=O)N2CCN(S(=O)(=O)c3ccccc3Br)CC2)cc1	i	-14%
Cc1ccc(NC(=S)N2CCCC(CO)C2)c(C)c1 (centres undefined)	i	-12%
O=C(Oc1cccc(N2C(=O)C3C4c5ccccc5C(c5ccccc54)C3C2=O)c1)c1ccco1 (centres undefined)	i	-10%
COc1ccc(OCCOCCOc2ccc(C)cc2[N+](=O)[O-])cc1	i	-7%
COc1cccc(NC(=O)Cn2c(=O)n(CCCCC(=O)NCc3ccccc3Cl)c(=O)c3ccccc32)c1	?	-20%
O=C1CC(NC(=O)C(F)(F)F)=NN1c1ccccc1	?	-5%
COc1ccc(OC)c(NCc2cccn2-c2nnc(N3CCCCC3)s2)c1	-19%	0%
CCOC(=O)Nc1ccc2c(CN3C(=O)NC(CC)(CC)C3=O)cc(=O)oc2c1	?	?
Clc1ccc(CCNc2ncnc3c2c(-c2ccccc2)cn3-c2ccccc2)cc1	-18%	-13%
CCc1ccc(NC(=O)CSc2nc3[nH]ncc3c(=O)[nH]2)cc1	i	2%
Cc1ccc(NC(=O)NC(C)c2c(-n3cccc3)sc(C)c2C)cc1F (centres undefined)	-21%	-26%
CS(=O)(=O)N(CC(=O)Nc1ccccc1C(=O)N1CCOCC1)c1ccc(F)c(Cl)c1	-18%	-14%
Cc1ccc(S(=O)(=O)C(NC(=O)c2ccccc2)=C(Cl)Cl)cc1	?	?
CCC(C(=O)NCC1CCCO1)N(C(=O)c1snc(C(N)=O)c1N)c1ccc(Cl)cc1 (centres undefined)	-4%	-8%
CC[C@]12c3[nH]c4cc(CCC(=O)N(C)C)ccc4c3CCN1C(=O)[C@@H](CC(=O)NCCC1=CCCCC1)C[C@@H]2C(=O)N1CCN(C(=O)c2ccco2)CC1	i	-16%
CC(C)=CCC/C(C)=C/C=N/NC(=O)c1cccc([N+](=O)[O-])c1	-4%	0%
Cc1nc(-c2ccncc2)sc1C(=O)Nc1ccc(Cl)cc1	-13%	-12%
Cc1ccc(NC(=O)C(c2ccccc2)c2ccccc2)c(O)c1	?	-23%
CCn1nccc1NC(=O)c1csc([C@H]2C[C@H](O)[C@@H](CO)O2)n1	11%	-5%
N#Cc1ccsc1NC(=O)CN1CCN(Cc2ccccc2)CC1	-15%	-2%
COc1ccc(-c2nc(CS(=O)CC(=O)NCc3ccccc3OC)c(C)o2)cc1 (centres undefined)	-5%	-8%
CC(C)C[C@H]1CN([C@@H](Cc2ccc(O)cc2)CN2CCC[C@H]2CN2C(=O)C(=O)NC[C@@H]2Cc2ccccc2)C(=O)C(=O)N1CCc1ccccc1	-6%	-2%

Structures shown so far that contain a COOH group:
SMILES	Vaccinia mCherry	Vaccinia Venus
O=C(O)/C=C/c1ccc2c(c1)S(=O)(=O)N(C1CCCC1)[C@H]2CC(=O)O	-12%	-8%
Cc1ccc(NC2SC(=O)N(Cc3cccc(C(=O)O)c3)C2=O)cc1 (centres undefined)	-19%	-23%

Further entries follow:
SMILES	Vaccinia mCherry	Vaccinia Venus
Cc1cccc(C(=O)N2CC3(C)CC2CC(C)(C)C3)c1 (centres undefined)	-22%	-11%
CCOc1ccc(Br)cc1S(=O)(=O)Nc1ccc(C(=O)OCC(=O)N(C)c2ccccc2)cc1	-21%	-10%
Cc1nn(CC(=O)Nc2ccc(Br)cc2F)c(=O)c2cccn12	-22%	-3%
Nc1ccn(CC(=O)NCCCc2ccccc2)c(=O)n1	i	-8%
CCC(=O)N1CCCc2cc(S(=O)(=O)N3CCC(C(=O)NC4CCC(C)CC4)CC3)ccc21 (centres undefined)	-5%	-20%
Cc1nc(-c2ccc(C(F)(F)F)cc2)sc1C(=O)NN	?	-12%
COc1ccc(-c2nnc(SCC(=O)O)n2C)cc1OC	i	3%
CCN(CC)c1ccc(NC(=O)/C=C\c2ccccc2Cl)cc1	-30%	?
COc1ccc(CC(=O)N(C)Cc2ccc(Cl)cc2)cc1S(=O)(=O)N1CCOCC1	-19%	-20%
Cc1cc(C(=O)NNC(=O)C(CCC(N)=O)NS(=O)(=O)c2ccc(Cl)cc2)c(C)o1 (centres undefined)	i	-5%
CSc1ccc(C2(O)Cc3cccc[n+]3C2c2ccccc2)cc1 (centres undefined)	-1%	-6%
O=C(NCc1ccccc1Cl)[C@H]1CCCN1C(=O)[C@H]1CCCN1C(=O)c1ccc(Cl)cc1	15%	-3%
Cc1ccc(NC(=O)N2CCC(O)(c3cccnc3)CC2)cc1	-5%[1.46 µM]	2%
CC1C(=O)N2CCCc3cc(NS(=O)(=O)c4ccccc4)cc1c32 (centres undefined)	-13%	-8%
COc1cc(/C=C/C(=O)c2ccc(O)cc2)ccc1OCC#N	13µM*	13µM*
Cn1c(O)c(C=NC2CC(C)(C)NC(C)(C)C2)c(=O)n(C)c1=O	-2%	0%
CCCNC(=O)C(Cc1ccccc1F)NC(=O)c1ccc(C#N)cc1 (centres undefined)	i	-21%
O=C(Cc1nnc(NC(=O)Nc2ccc(F)cc2)s1)NCc1ccccc1	i	6%
OCc1ccccc1OCCCOc1cccc2cccnc12	i	-18%
Cc1ccc(N2CC(C(=O)Nc3nnc(SCCN4CCOCC4)s3)CC2=O)cc1C (centres undefined)	i	-15%
CC(CCC(=O)O)(c1ccc(O)cc1)c1ccc(O)cc1	i	-9%
Cc1ccc(S(=O)(=O)N(C)C)cc1NC(=O)COC(=O)CC1CCCC1	-10%	-4%
O=C(COc1ccccc1-c1ccccc1)c1ccccc1	-3%	-3%
NS(=O)(=O)c1ccc(CCNC(=O)Cn2c(=O)c3cccn3c3ccc(F)cc32)cc1	-2%	-1%
CCOC(=O)C1=C(C)N(C)C(=O)NC1c1cc2c(cc1[N+](=O)[O-])OCO2 (centres undefined)	-7%	-6%
CC(=O)c1cccc(N(CC(=O)Nc2ccc(S(=O)(=O)N3CCCC3)cc2)S(C)(=O)=O)c1	?	-15%
Cc1ccc(Cn2nc(C)c(NC(=O)c3cc(-c4ccc(F)cc4)on3)c2C)cc1	?	?
CC(C)CC(=O)Nc1cc(-c2ccccc2F)nn1-c1ccccc1	-5%	3%
CC(C)Nc1nc(-c2ccccn2)nc(-c2ccccc2)c1C#N	-18%	-8%
Cc1nc(SCC(=O)NCCc2ccccc2)nc(C)c1C	nt	-2%
CCOC(=O)c1nc(C)n(-c2ccc([N+](=O)[O-])cc2)n1	-2%	-6%
COc1cccc(Nc2ncnc3onc(-c4ccccc4OC)c23)c1	i	-11%
CCCCC(C(=O)NC1CCCC1)N(C(=O)c1snc(C(N)=O)c1N)c1ccc(C)cc1 (centres undefined)	-10%	-9%
O=C(O)CN1CCNCCN(CC(=O)O)CCNCC1	-17%	-11%
CCCn1cnc2cc(NCc3cccs3)ccc21	?	-2%
CC(=O)c1cccc(NC(=O)c2cccc(S(=O)(=O)N(C)C)c2)c1	-18%	-17%
CC1CCN(C(=O)c2cc(-c3ccc4c(c3)OCO4)on2)CC1	-13%	1%
CCOc1ccc(S(=O)(=O)N(CC(=O)N2CCC(C(N)=O)CC2)c2ccc(F)cc2)cc1	-22%	-19%
Cc1ccc(S(=O)(=O)N2CCCCC2)cc1NC(=O)COC(=O)c1ccccc1F	-15%	-11%
CC(C)CCNS(=O)(=O)c1ccc(N2CCCCS2(=O)=O)cc1	-16%	-23%
CC(C)c1ccc(S(=O)(=O)c2nnn3c2nc(N2CCCCC2)c2sccc23)cc1	-17%	-26%
CCN(CC)S(=O)(=O)c1ccc(O)c(NC(=O)CN2CCc3ccccc3C2)c1	-14%	-8%
CC(=O)NCC(=O)OCC(=O)Nc1nc(-c2ccccc2)cs1	-28%	-9%
CCC(=O)Nc1ccc(S(=O)(=O)NCc2ccc3c(c2)CCN3C(=O)c2ccc(C)cc2)cc1	-18%	-16%
CC(C)c1ccc(S(=O)(=O)Nc2ccc(SC(F)F)cc2)cc1	-7%	-30%
O=C(C[C@H]1C/C=C\CC[C@H](Cc2ccc(F)cc2)C(=O)O[C@@H](c2ccccc2)CNC1=O)N[C@@H](CO)Cc1ccccc1	-25%	?
Cc1ccc(C)c(CC(=O)N2CCCCC2c2cc(C(=O)Nc3ccc(F)c(Cl)c3)no2)c1 (centres undefined)	-8%	3%
